LT uptake inh – blocks cellular internalization of anthrax lethal toxin. Cells, anthrax lethal toxin internalization, FRET ratio (460/530). Potency, µM (titrated, usually from 40 µM), inactives show at the highest dose activity change, negative = inhibition, hits mostly inhibitors. 70,000 compounds, 0.67% hits; active = well fitted falling ratio curve with the 530 nm signal flat; inconclusive = other ratio curves, or a change in one channel alone; inactive = flat curves in the ratio and both channels; the % refers to the ratio; further: on the % scale 0 is the no-effect control and ±100 the full control effect; nearly all actives have a fitted effect of over 50% in size; tested in ME-180 cells; beta-lactamase reporter
Prx2 Sm inh – Schistosoma mansoni Prx2 inhibition; S. mansoni Prx2 activity coupled to TGR/GSH (TGR is thioredoxin glutathione reductase), NADPH fluorescence loss, qHTS; some inactives read as strong as hits; Potency, µM; 65,000 compounds, 0.07% hits; active means full or partial inhibition curve with a strong effect at the top dose; inconclusive means weaker partial or single-point curve; inactive means no accepted curve; further: series up to 57 µM; many of its hits are not listed in these tables
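Enzyme mix: 100 uM NADPH, 25 nM TGR, 700 uM GSH, 50 nM Prx2 in 100 mM phosphate pH 7.4, 10 mM EDTA, 0.01% Tween-20. 15 min RT with compound; NADPH/GSH added, H2O2 starts reaction; NADPH fluorescence read 8 min.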
Active calls of the source: *; ? = inconclusive; nt = not tested or not shown; & = joins results of further samples; [ ] = remark or other dose. Potency means the concentration at half of the fitted maximal effect. The list is partial; rates above refer to the full screens.

Sequence of screens – LT uptake inh | Prx2 Sm inh
1: Cc1ccn2cc(C(=O)NC3CCN(Cc4ccccc4)CC3)nc2c1
 : -16.3% | >57
2: CN=C(N)/N=C(\N)Nc1cc2ccccc2c2ccccc12
 : -6.1%[8 µM] | >57
3: Cc1ccc(-c2c3c(=O)n(C)c(=O)n(C)c3c3nnc4ccccc4n23)cc1
 : -3.8% | >57
4: CC(C)N(C(=O)COC(=O)c1ccccc1C(=O)N1CCN(c2ccc(F)cc2)CC1)C(C)C
 : -4.3% | >57
5: CCc1nc(N2CCN(c3nc(C)cc(C)n3)CC2)c2oc3ccccc3c2n1
 : -1.6% | >57
6: COC(=O)c1ccnc(/C=N/O)c1
 : -0.3% | >57
7: CCOc1cc(C)nc(N2CCC(C(=O)Nc3ccccc3OCC)CC2)n1
 : -18.8% | >57
8: COc1ccc(S(=O)(=O)NC(C)C(=O)Nc2cccc(C(C)=O)c2)cc1 (configuration not stated)
 : ? | >57
9: O=C(Nc1ccccc1N1CCOCC1)c1ccc2c(c1)C(=O)N(Cc1ccncc1)C2=O
 : ? | >57
10: CCOC(=O)C(NC(=O)Nc1ncccn1)(Oc1ccccc1)C(F)(F)F (configuration not stated)
 : -8.3% | >57
11: O=C(COc1ccc(F)cc1)Nc1nccs1
 : 3.9% | >57
12: C=CCSc1nnc(Cc2cc(=O)[nH]c(=O)[nH]2)n1-c1cc(C)ccc1C
 : -26.1% | >57
13: Cc1c(-c2ccc(Cl)cc2)noc1C1CCN(CCc2ccccc2)CC1
 : ? | >57
14: COc1cc(NC(=O)c2cc(C(C)C)on2)cc(OC)c1OC
 : 5.1% | >57
15: C=CCn1cc(C(=O)NCc2ccco2)c(=O)c2cc(S(=O)(=O)N3CCCCCC3)ccc21
 : ? | >57
16: O=C(CNC(=O)c1cccs1)NCCN1CCN(Cc2ccccc2)CC1
 : -1.8% | >57
17: O=C(O)C1CCCN1S(=O)(=O)c1ccc2c(c1)CCC2 (configuration not stated)
 : -23.0% | >57
18: CCOc1ccc(CNC(=O)C2CCCN(S(C)(=O)=O)C2)cc1OC (configuration not stated)
 : 12.1% | >57
19: CNc1cc(OC)c(C(=O)N[C@@H]2CCN(Cc3ccccc3)[C@H]2C)cc1Cl
 : ? | >57
20: Cc1ccc(C[C@H](Cc2nc3ccccc3[nH]2)c2nc3ccccc3[nH]2)cc1
 : ? | >57
21: Cc1cc2c(cc1S(N)(=O)=O)S(=O)(=O)CCC2
 : 0.9%[3.58 µM] | >57
22: COc1ccccc1Nc1ncccc1C(=O)O
 : 6.8% | >57
23: CCN(CCCNC(=O)C1CCC(=O)N1C1CCCC1)c1cccc(C)c1 (configuration not stated)
 : 1.9% | >57
24: O[C@@H](c1cc(C(F)(F)F)nc2c(Cl)cc(Cl)cc12)[C@@H]1CCCCN1
 : -3.4%[8 µM] | >57
25: CCN(C(=O)CSc1nncs1)c1c(N)n(Cc2ccccc2)c(=O)[nH]c1=O
 : 7.7% | >57
26: O=C(c1ccc2c(c1)[nH]c(=S)n1c3ccccc3nc21)N1CCN(c2ncccn2)CC1
 : 2.0% | >57
27: O=C(O)CSCc1cnn(-c2ccccc2)c1-n1cccc1
 : -5.4% | >57
28: COc1ccc(-c2nnc3n2N=C(c2ccccc2)CS3)cc1OC
 : nt | >57
29: CCOC(=O)C1C(=O)CC(C)(O)C(C(=O)OCC)C1/C=C/c1ccccc1 (configuration not stated)
 : ? | >57
30: CCc1ccc(N/C(SCc2cccc(F)c2)=C(/C#N)C(=O)NCc2ccco2)cc1
 : 6.4% | >57
31: O=C(CN1C(=O)CCS(=O)(=O)c2ccccc21)Nc1cccc(Cl)c1
 : 3.9% | >57
32: COc1cccc(NC(=O)CN(c2ccc(C)cc2)S(=O)(=O)c2c(C)nn(C)c2C)c1
 : 6.9% | >57
33: COCc1c(C(=O)OCC(=O)N2c3ccccc3NC(=O)C2(C)C)oc2ccccc12
 : -16.4% | >57
34: NC1CCN(c2cccc(Cl)n2)CC1
 : ? | >57&>57
35: CCOc1ccc(NC(=O)C2CC(=O)N(c3cc(C)cc(C)c3)C2)cc1 (configuration not stated)
 : ? | >57
36: Cc1cc(C)nc(NCCCc2ccccc2)n1
 : -15.1% | >57
37: c1ccc(Nc2nn[nH]n2)cc1
 : 10.7% | >57
38: O=C(Nc1ccc2oc(=O)ccc2c1)c1ccco1
 : 19.8% | >57
39: CCn1cc(Br)c(C(=O)NCc2ccco2)n1
 : nt | >57
40: COc1ccc(CCNC(=O)Cn2cnc3c(nnn3Cc3ccccc3F)c2=O)cc1OC
 : 1.0% | >57
41: O=C(N1CCOCC1)C1(c2ccccc2)CCCCC1
 : 0.0% | >57
42: O=C(C(Cc1ccccc1)N1C(=O)C2C3C=CC(C3)C2C1=O)N1CCCCC1 (configuration not stated)
 : 16.9% | >57
43: Cc1nc2ccccn2c1/C(O)=C1\C(=O)C(=O)N(CCCN(C)C)C1c1ccc(Cl)cc1 (configuration not stated)
 : -7.3% | >57
44: Cn1c(SCC(=O)NCCN2C(=O)CSC2=O)nc2ccccc2c1=O
 : -5.3% | >57
45: Cc1cc(OCCOCCN2CCCC2)ccc1C(C)C
 : ? | nt
46: Cc1cc(C)nc(SCc2cccc(C(=O)O)c2)n1
 : -3.4% | >57
47: CCOC(=O)C1CCCCN1C(=O)CCc1c(C)nc2cc(-c3ccccc3)nn2c1C (configuration not stated)
 : -2.3% | nt
48: CCOC(=O)c1nc(-c2ccccc2)oc1N(C)C
 : -8.7% | >57
49: CCC1(N(C(C)=O)c2ccc(OC)cc2)C(=O)c2ccccc2C1=O
 : ? | nt
50: CC1(C(=O)NCc2ccccn2)C=CCN1C(=O)c1ccccc1 (configuration not stated)
 : 7.7% | nt
51: CC(C)CCn1c(CN2CCN(Cc3ccccc3)CC2)nc2c1c(=O)[nH]c(=O)n2C
 : ? | >57
52: Cc1cc(C)nc(/N=C2/NC(=O)CS2)n1
 : -0.6% | >57
53: c1ncc(-c2ccc3c(c2)OCO3)c(NCCc2cnc[nH]2)n1
 : -7.2% | >57
54: CCn1c(N2CCN(C(=O)C34CC5CC(CC(C5)C3)C4)CC2)nc2ccccc21
 : 2.4% | >57
55: CCN(CCCn1c(=S)[nH]c2ncccc2c1=O)c1ccccc1
 : 20.9% | >57
56: O=C(CSc1nnc(-c2cccs2)n1-c1ccccc1)N1CCc2ccccc21
 : nt | >57
57: O=c1cc(N2CCC3(CC2)OCCO3)[nH]c(=O)n1C1CCCCC1
 : -18.0% | >57
58: CC(O)CCCCCCC/C=C/C=C/C(N)=O (configuration not stated)
 : -12.6%[8 µM] | nt
59: Cc1csc2ncc(C(=O)Nc3ccccc3Cl)c(=O)n12
 : -0.6% | >57
60: Cn1c(Cl)nc2ccccc21
 : ? | >57

The list goes on:
Sequence of screens – LT uptake inh | Prx2 Sm inh
61: COCCn1c(SCc2nc3sc(C(=O)OC)c(C)c3c(=O)[nH]2)nc2ccccc21
 : -13.4% | >57
62: Cc1ccc2c(c1)N(CCCC(=O)NCCCN1CCCC1=O)C(=O)CO2
 : 7.8% | >57
63: Cc1ccc2c(c1)NC(=O)C(CC(=O)NC1CCCCC1C)O2 (configuration not stated)
 : -5.4% | >57
64: CCCOc1ccc(C2C(C(=O)c3ccco3)=C(O)C(=O)N2CCN2CCOCC2)cc1OC (configuration not stated)
 : -7.1% | >57
65: O=C(O)Cc1cc2ccccc2nc1C(=O)O
 : -7.3% | >57
66: CCn1nnnc1SCC(=O)Nc1cc(OC)cc(OC)c1
 : -5.2% | nt
67: COc1cccc2c3c(c(C)nc12)CC(C)O3 (configuration not stated)
 : -12.5% | >57
68: O=C(c1cccc(Cl)c1)N1CCN(C2CCCCCC2)CC1
 : -16.0% | >57
69: COc1ccc(-c2noc(N(C)CC(=O)Nc3cccc(C(F)(F)F)c3)n2)cc1
 : ? | ?
70: Cc1cccc(N(C(=O)CNC(=O)c2ccco2)C(C(=O)NC2CCCC2)c2cccnc2)c1 (configuration not stated)
 : ? | >57
71: O=C1C2=C(Nc3cc([N+](=O)[O-])ccc3N2)O[C@@H]1c1ccc([C@H]2OC3=C(Nc4ccc([N+](=O)[O-])cc4N3)C2=O)cc1
 : 4.8%[8 µM] | >57
72: CC(C)(C)n1ncc2c(=O)n(CC(=O)N3CCCc4ccccc43)cnc21
 : 0.2% | >57
73: CC[N+](CC)(CC)CC[C@](O)(c1ccccc1)C1CCCCC1
 : 4.6%[3.58 µM] | >57
74: c1cc(-c2noc(-c3ccc4c(c3)OCO4)n2)ccn1
 : -5.2% | >57
75: O=C(NCCc1ccc(Cl)cc1)C1CCN(S(=O)(=O)c2cccc3nonc23)CC1
 : -9.2% | >57
76: Cc1cccc(N(CC(=O)NCc2ccc3c(c2)OCO3)C(=O)CCC(=O)Nc2ccccn2)c1C
 : 12.6% | >57
77: COc1ccc(OC)c(CNC(=O)COc2cc(=O)n(C)c3ccccc23)c1
 : 5.7% | >57
78: CCc1ccc2[nH]c(=O)c(CN(Cc3ccco3)S(=O)(=O)c3ccc4c(c3)OCCO4)cc2c1
 : -7.8% | >57
79: O=C(Nc1ccc2ncccc2c1)Nc1ccc2ncccc2c1
 : -29.8%[8 µM] | >57
80: O=C(NCCCCCNC(=O)c1ccco1)c1ccco1
 : -13.9% | >57
81: CC(=O)NCC(=O)N(c1c(C)n(C)n(-c2ccccc2)c1=O)C1(C(=O)NC2CCCC2)CCCCC1
 : 10.0% | >57
82: CC1CCCN(c2nc3c(c(=O)n(C)c(=O)n3C)n2CCSc2nc3ccccc3s2)C1 (configuration not stated)
 : -11.0% | >57
83: N=c1n(CCO)c2ccccc2n1Cc1ccccc1Cl
 : -2.6% | >57
84: COC(=O)CSc1nnc(-c2ccc(S(=O)(=O)N3CCC(C)CC3)cc2)o1
 : -11.5% | >57
85: Cc1ccc(C(C(=O)NC2CCCC2)N(Cc2cccnc2)C(=O)c2snc(C(N)=O)c2N)o1 (configuration not stated)
 : -18.1% | >57
86: N[C@@H](CCCP(=O)(O)O)C(=O)O
 : -5.4% | >57
87: Cn1cccc1-c1nc2ccc(NC(=O)c3cccs3)cc2[nH]1
 : -20.5% | >57
88: CCOC(=O)C1CCCN(C(=O)c2ccc3c(c2)NC(=O)C(N2CCOCC2)S3)C1 (configuration not stated)
 : -1.4% | >57
89: CCOC(=O)CNC(=O)CSc1nc2cccnc2n1Cc1ccccc1
 : 9.4% | >57
90: Cc1cc(NC(=O)C2CC2)ncc1NC(=O)C12CC3CC(CC(C3)C1)C2
 : -10.6% | >57
91: C[C@@H]1[C@@H](C)N1C[C@H](O)Cn1ccnc1[N+](=O)[O-] (some centres not stated)
 : 4.1%[8 µM] | >57
92: O=C(Oc1ccc2[nH]cc(CCN3C(=O)c4ccccc4C3=O)c2c1)c1ccco1
 : -2.0% | >57
93: O=C1C2CCCN2C(c2ccccc2)N1c1nccs1 (configuration not stated)
 : -22.7% | >57
94: O=C(CN1C(=O)NC2(CCCCCC2)C1=O)N1CCC(Cc2ccccc2)CC1
 : 4.6% | >57
95: Cc1ccc(-c2csc(N3CCC(NS(=O)(=O)c4ccc5c(c4)OCCO5)CC3)n2)cc1
 : ? | >57
96: CC(C)CN1C(=O)NC(NC(=O)c2cccs2)(C(F)(F)F)C1=O (configuration not stated)
 : -4.2% | >57
97: CSCCC(N=Cc1c(O)n(-c2ccc(F)cc2)c(=O)[nH]c1=O)C(=O)O (configuration not stated)
 : ? | >57
98: Cc1noc2nc(-c3cccs3)cc(-c3nnc4n3CCCCC4)c12
 : 3.5% | >57
99: Cc1cccc(Nc2nnc(SCc3cn4ccsc4n3)s2)c1
 : 0.4% | >57
100: CCN1CCN(Cc2c(O)ccc3c(=O)c(-c4ccc(OC)c(OC)c4)c(C)oc23)CC1
 : 18.0% | nt
101: Cn1c(=O)c2c(nc(SCC(=O)N3CCc4ccccc4C3)n2C)n(C)c1=O
 : -6.3% | >57
102: CCOC(=O)N(CC)c1ccc(C(O)(C(=O)OCC)C(F)(F)F)cc1 (configuration not stated)
 : -0.9% | nt
103: CCS(=O)(=O)N1CCN(c2cccc(C)c2C)CC1
 : ? | >57
104: O=C(Nc1ccon1)c1cc2c(s1)CCCC2
 : -8.2% | >57
105: CCSc1nc2n(n1)C(c1cccc(F)c1)C1=C(CCCC1=O)N2 (configuration not stated)
 : 11.6% | >57
106: O=c1c2cccnc2[nH]c(=S)n1CCCN1CCN(c2ccc(F)cc2)CC1
 : -2.3% | >57
107: CCOCc1cnc(C)nc1NCC(=O)c1c(C)n(C)c2ccc(OC)cc12
 : -6.1% | >57
108: COc1cccc(CNC(=O)c2nnn(CC(=O)Nc3ccc(C)c(C)c3)c2N)c1
 : -11.5% | >57
109: Cc1ccc(-c2csc3nc(C)n(-n4c(C)ccc4C)c(=O)c23)o1
 : ? | >57
110: CC(C)(C)OC(=O)N1CCN(c2ccc(NC(=O)Cn3nnc(-c4ccccc4)n3)cc2)CC1
 : -5.3% | >57
111: COCn1c(-c2ccccc2)nc2ccccc21
 : -21.1% | >57
112: O=C(CN(C(=O)Cn1nnc(-c2ccc(F)cc2)n1)C1CCCC1)NC1CCCC1
 : 12.4% | >57
113: CCOC(=O)c1cnc(SCC(=O)Nc2ccc3c(c2)OCCO3)nc1N
 : 2.7% | >57

Compound profiles, as listed above. Values in the order: LT uptake inh	Prx2 Sm inh
Cc1cccc(Nc2nnc(SCc3cn4ccsc4n3)s2)c1 in the list: 0.4%	>57
CCOCc1cnc(C)nc1NCC(=O)c1c(C)n(C)c2ccc(OC)cc12 in the list: -6.1%	>57
O=C(Oc1ccc2[nH]cc(CCN3C(=O)c4ccccc4C3=O)c2c1)c1ccco1 in the list: -2.0%	>57
